# Screening data deposited in PubChem by several laboratories.
# RanGTP-Impb inh – disruptors of Ran-importin-beta complex formation – biochemical, FRET, CFP-Ran, YFP-importin-beta, homogeneous, primary screen. cell-free CFP-Ran/YFP-importin-beta FRET ratio. inhibition, % (concentration not given with the values). 300,000 tested, 1.1% active;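 active = most replicates above 15%; inconclusive = exactly half above 15%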;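 note: 0% = DMSO wells and 100% = Ran loaded with GDP instead of GTP; wells of about 40 µL received 100 nL stock; the first replicate is given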
# MLL AF4-AF9 inh – MLL-AF4/AF9 protein interaction inhibition; 350,000 tested, 0.47% active; inhibition, % at 10 µM; P42568; AID 651704; AlphaScreen, biotin-AF4 peptide binding to FLAG-AF9;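 active = every replicate reaching a set inhibition limit, whatever the replicate mean, cut at about 25% in these data; inconclusive = mean inhibition reaches that limit but some replicates miss it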;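 note: 0% = plate neutral control median and 100% = total signal loss; the record names both 10 and 1 µM as test concentration; the first replicate is given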
# Target sequence (P42568 whole entry, looked up): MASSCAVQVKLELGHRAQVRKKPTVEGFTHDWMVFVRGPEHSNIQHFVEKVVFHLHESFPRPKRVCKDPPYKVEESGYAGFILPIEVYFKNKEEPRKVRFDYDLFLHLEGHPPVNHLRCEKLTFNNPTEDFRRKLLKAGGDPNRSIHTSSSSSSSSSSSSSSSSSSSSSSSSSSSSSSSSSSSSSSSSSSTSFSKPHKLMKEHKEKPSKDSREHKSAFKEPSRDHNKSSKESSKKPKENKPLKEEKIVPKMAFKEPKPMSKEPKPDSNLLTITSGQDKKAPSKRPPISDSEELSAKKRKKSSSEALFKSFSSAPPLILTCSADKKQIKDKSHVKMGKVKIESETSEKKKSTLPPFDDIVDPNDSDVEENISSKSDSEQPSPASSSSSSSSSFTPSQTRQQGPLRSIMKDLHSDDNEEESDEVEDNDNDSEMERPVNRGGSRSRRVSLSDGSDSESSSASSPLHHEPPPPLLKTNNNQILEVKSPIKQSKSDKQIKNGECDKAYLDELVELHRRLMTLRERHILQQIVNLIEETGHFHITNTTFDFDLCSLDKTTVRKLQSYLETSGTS
# Bfl-1 A1 inh – inhibitors of the anti-apoptotic protein A1, read as caspase activation; 330,000 tested, 0.066% active; caspase activation, % (test concentration not listed); AID 2462; MEF A1-2A-BIM cells, Caspase-Glo 3/7 luminescence, 3 h; percent of clofoctol response, vehicle zero;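 active = over half of replicate activation scores above 10%, or exactly half above 10 with the replicate mean above 10; inconclusive = replicate mean below 10 yet half the replicates above 10; inactive = over half of replicates below 10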;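 note: wells of about 30 µL received 50 nL stock; many hits fall short of the cut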
# Vif TR-FRET – HIV-1 Vif–A3G interaction blockers – biochemical, TR-FRET, GST-Vif 1-94, biotin-A3G peptide, dose response retest, primary screen (AID 1117319). TR-FRET GST-Vif / biotin-A3G peptide binding; higher % means a stronger effect; test concentration not given here; strong numbers were not always called active. one-dose inhibition, %; IC50 in µM for titrated hits. 260,000 tested, 0.57% active;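 active = above the screen mean plus three standard deviations and confirmed in dose response; inconclusive = results disagree or hit not tested in dose response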;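 note: Vif residues 1-94 fused to GST binding biotinylated APOBEC3G peptide 110-148; 0% = full assay without inhibitor and 100% = GST in place of GST-Vif; retest series ran down from 100 µM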
# Calb FLC – affects C. albicans growth with fluconazole; AID 1979; 300,000 tested, 0.57% active; growth inhibition, % (no concentration beside the values); C. albicans CaCi-2 (fluconazole-resistant clinical isolate) + fluconazole, Alamar Blue growth, 48 h;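 active = most replicates above 75%; inconclusive = exactly half above 75%; inactive = most below 75%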;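 note: all wells also contain fluconazole at 8 µg/ml as a sub-toxic cotreatment; 0% = median of DMSO wells and 100% = median of geldanamycin control wells; wells of about 8 µL received 7.5 nL stock; the first replicate is given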
# Ecoli rRNA inh – inhibits bacterial ribosomal RNA function over humanized ribosomes | GFP signal change (wild-type ribosome), % (concentration not given with the values) | E. coli WT GFP vs humanized-ribosome RFP mutants, fluorescence, 24 h; active compounds read low; DMSO median 0, no signal -100 | 350,000 tested, 1.6% active;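 active = significant combined selectivity score with lowered wild-type GFP, culture density cut under 30%, mutant RFP and density less affected; inactive = any of these conditions unmet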; note: one replicate is shown; some compounds called inactive have numbers as strong as hits
# T cruzi repl – T. cruzi replication inhibition; 300,000 tested, 1.4% active; T. cruzi beta-gal in NIH3T3, luminescence, 90 h; inhibition, % (no concentration beside the values);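 active = mean inhibition across valid replicates above about 55%, limit read from the data; inconclusive = mean below that limit but half or more replicates reach it; inactive = mean below it, under half of replicates reach it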;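 note: signal also drops with host cell toxicity which is not excluded here; 0% = plate median of DMSO wells and 100% = zero luminescence signal; higher percent means less beta-gal luminescence so fewer parasites; stock transfer was 50 nL into about 50 µL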
# Beta cell apopt – beta cell apoptosis inhibition; 300,000 tested, 0.8% active; AID 435005; protection from apoptosis, % (test concentration not listed); INS-1E cytokine-induced death, ATP luminescence, 48 h; percent of positive-control rescue, neutral wells zero;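 active = all replicates at 75% or more, or half of them and the mean; inconclusive = half reach 75% but not the mean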;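 note: 0% = cytokine-treated negative control wells and 100% = positive control rescue; higher means more ATP so stronger rescue from cytokine killing; wells of about 40 µL received 100 nL stock; the first replicate is given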
# Ecoli rRNA inh OD600 – recorded beside Ecoli rRNA inh, whose call it bears; OD600 change, %; measured here: OD600 growth;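 optical density of the mix in the first replicate; 0 = DMSO median and -100 = no signal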
# Ecoli rRNA inh RFP – further read-out of Ecoli rRNA inh, marked with its call; RFP signal change, %; measured here: RFP humanized mutant strains;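 first replicate; 0 = DMSO median and -100 = no signal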
# Numbers without * were called inactive; ? = inconclusive; / = not tested or not shown; & = joins results of further samples.
SMILES,RanGTP-Impb inh,MLL AF4-AF9 inh,Bfl-1 A1 inh,Vif TR-FRET,Calb FLC,Ecoli rRNA inh,Ecoli rRNA inh OD600,Ecoli rRNA inh RFP,T cruzi repl,Beta cell apopt
Cc1ccc(/C=N/n2cnc3sc4c(c3c2=O)CCCC4)o1,?,/,1.2,8%,0,/,/,/,?,1
Oc1c(N=NC(=S)Nc2ccccc2F)c2ccccc2n1Cc1cccc(Cl)c1,2.5,8.0,0.9,-2%,10,-3,14,0.8,57*,40
Cc1cc(C)nc(NNC(=O)NC2CCCCC2)n1,-0.6,/,-0.3,10%,10,/,/,/,-4,1
CC1CC(C)CN(S(=O)(=O)c2ccc(C(=O)N(C)Cc3ccccc3)cc2)C1 (stereo not given),/,-5.6,2.2,/,/,-2,3,0.7,/,3
Cc1nn(-c2ccccc2)c(C)c1NC(=O)COc1ccc(C#N)cc1,0.1,3.6,0.2,2%,4,10,9,1.1,-2,-5
NC(=O)CSc1nnc(NC(=O)C2CC(=O)N(c3ccc(F)cc3)C2)s1 (stereo not given),1.5,-1.5,-0.2,/,3,6,10,-0.2,-4,-10
O=C(NNC(=O)C1CCN(c2ncccn2)CC1)c1ccccc1,3.5,-2.5,0.4,1%,10,12,5,-0.2,-3,-1
O=C(OCC1OC(n2cnc3c(N(C(=O)c4ccccc4)C(=O)c4ccccc4)ncnc32)C(O)C1F)c1ccccc1 (stereo not given),-2.0,0.4,/,14%,3,-8,-13,23,2,/
O=C(CCNC(=O)c1ccc(Cl)cc1)NCCC1=CCCCC1,3.1,-2.1,0.5,-3%,-12,-5,1,-2.6,-5,-4
CCOCc1c(C(=O)Nc2ccc(OC)nc2)oc2ccccc12,-1.0,-3.8,-0.3,/,1,-5,2,-1.3,-6,10
COCCCNC(NC(=O)c1ccc(C)cc1)C(Cl)(Cl)Cl (stereo not given),2.3,/,-0.2,-2%,-17,/,/,/,6,0
COC(=O)CC1Sc2ccccc2NC1=O (stereo not given),0.5,/,-0.3,12%,32,/,/,/,-11,-3
CN(C)C(=O)CSc1nnc(-c2cc(-c3cccs3)nc3ccccc23)o1,0.9,/,0.7,23%,-3,/,/,/,26,0
CC(O)CN1CC(O)=C(c2nc3ccccc3s2)C1=N (stereo not given),/,-2.7,0.0,3%,20,-6,14,1.9,/,0
CCN(Cc1cnn(C)c1)C(=O)c1ccc(OC2CCN(S(=O)(=O)N(C)C)CC2)cc1,-2.8,-0.3,0.4,20%,29,-14,-24,4.1,3,11
CC(C)(C)c1cc(NC(=O)Nc2ccccc2OC(F)(F)F)no1,-0.7,0.8,1.0,6%,-6,-6,1,-1.2,18,/
O=C(c1ccc(Cn2cc([N+](=O)[O-])cn2)o1)N1CCCC1,-1.4,0.3,/,-1%,-8,0,3,-0.1,-4,/
CC1=NNC(=O)C1CCC(=O)N/N=C\c1ccccc1[N+](=O)[O-] (stereo not given),-2.1,/,-0.2,-2%,-3,/,/,/,-1,2
Cc1cc(NC(=O)c2sc(Nc3ccc(F)cc3)nc2N)no1,-4.8,4.7,-0.2,4%,-5,-8,-3,2.2,5,-1
CC1CCCCN1CCCNC(=O)c1nn(C)c2c1CSc1ccccc1-2 (stereo not given),-2.9,6.4,0.2,/,-13,2,0,-2.4,16,-1
CC(=O)c1cc(C)ccc1OC(=O)c1cccc2nc(C)oc12,-0.3,/,-1.1,4%,1,/,/,/,12,6
CCS(=O)(=O)N1Cc2ccccc2CC1C(=O)Nc1nnc(SCc2c(Cl)cccc2Cl)s1 (stereo not given),-2.0,-1.4,0.6,/,3,8,-3,8.9,14,10
COc1ccccc1NC(=O)CSCc1cc(=O)n2ccsc2n1,4.4,1.0,0.3,/,3,8,10,-2.0,-10,-3
Cc1nc2sc(C(c3cccc(F)c3)N3CCN(C(=O)c4ccco4)CC3)c(O)n2n1 (stereo not given),5.9,/,0.1,1%,7,/,/,/,-5,-4
Cn1c(=O)c2c(-c3ccccc3)n(C3CCCCC3)cc2n(C)c1=O,-1.1,/,-0.9,-7%,9,/,/,/,32,0
COc1ccc(C2=NOC(Cn3c(Cc4ccc(Cl)cc4)nc4c3c(=O)n(C)c(=O)n4C)C2)cc1 (stereo not given),4.6,/,1.3,-7%,-3,/,/,/,26,-1
CCOC(=O)C1=C(COC(=O)/C=C/c2ccc(O)c(OC)c2)NC(=O)NC1C (stereo not given),/,2.4,0.4,5%,/,1,-11,-0.6,/,-2
CCN(CC)S(=O)(=O)c1ccc(NC(=O)C2c3ccccc3Oc3ccccc32)cc1,-2.8,/,0.9,?,-24,/,/,/,41,8
Cc1cccc(-n2c(SCC(=O)O)nc3sc4c(c3c2=O)CCC4)c1,2.8,-23,-0.2,5%,-2,-7,-2,5.8,-14,2
COC(=O)/C=C/c1ccc(OC(=O)c2ccncc2)cc1,-2.1,1.0,-1.6,-3%,-8,/,/,/,-8,/
Cc1ccnc(N=Cc2nc(-c3ccccc3Br)oc2O)c1,2.0,0.6,-1.3,3%,-4,6,2,-1.0,-21,1
CN(C)c1ccc(C=NC(CO)C(O)c2ccc([N+](=O)[O-])cc2)cc1 (stereo not given),5.4,5.0,-0.5,0%,3,8,0,-3.3,-10,-7
CCOC(=O)N1CCC(NC(=O)c2cc3c(-c4ccccc4F)nn(C)c3s2)CC1,6.1,1.3,0.1,-12%,2,8,11,-6.4,35,0
O=C1C(Cc2ccccc2O)NC(=S)N1c1ccccc1 (stereo not given),0.2,3.0,-0.2,-3%,-8,8,8,-1.9,-15,-1
O=C(Cn1nnc(-c2ccncc2)n1)Nc1ccc2c(c1)CCC2,6.7,/,0.8,3%,-4,/,/,/,-2,-4
COc1cc(OC)c(CN2CCC(Cc3ccccc3)CC2)cc1Br,3.4,-0.6,-0.3,/,-9,-12,-19,1.8,29,4
COc1ccc(-c2nc(CS(=O)CC(=O)NCCCN3CCOCC3)c(C)o2)cc1OC (stereo not given),-5.2,-6.2,-0.4,/,4,0,9,0.0,4,-4
COC(=O)[C@H](C)NC(=O)Nc1ccc(Oc2ccccc2)cc1,2.4,/,-0.4,2%,7,/,/,/,-14,-2
COCc1cc(C)nc(OCC(=O)N/N=C/c2ccc(-c3cccc([N+](=O)[O-])c3)o2)c1C#N,-3.2,/,0.5,5%,-3,/,/,/,-6,1
O=C(NCCc1ccccc1)C1CC(=O)N(CCc2ccccc2)C1 (stereo not given),-1.1,-1.7,1.4,-3%,5,5,3,0.2,-14,-5
Cc1c(NC(=O)/C=C/c2cn(-c3ccccc3)nc2-c2ccc(F)cc2)c(=O)n(-c2ccccc2)n1C,-17,-0.7,/,/,30,3,-2,-8.8,3,/
Cc1cc(C)cc(C(=O)NC(=S)Nc2ccc3c(c2)OCCO3)c1,0.5,3.0,-2.5,31%,19,-4,-20,-5.2,-7,-2
O=C(CCNC(=O)c1ccc(Br)cc1)NC1CCCc2ccccc21 (stereo not given),0.6,-17,0.6,2%,8,12,13,-0.9,-1,1
Cc1c(Br)cc(C(=O)NC2CCCCC2)c(C)c1C,0.7,/,-0.5,-5%,-29,/,/,/,6,11
CCOC(=O)c1c(C#N)cnn1-c1ccc(C)cc1,-2.8,/,0.7,29%,4,/,/,/,1,-9
CCc1ccc(S(=O)(=O)N2CCN(c3ccccc3OC)CC2)cc1,-0.6,-1.3,0.1,/,-6,-10,-11,-2.2,6,-3
CCc1ccccc1NCc1cc(=O)oc2cc(C)ccc12,2.8,0.1,0.7,18%,8,7,3,-0.8,18,-5
CN(CC(=O)Nc1ccccc1Cl)CC(=O)Nc1cccc2ccccc12,/,0.5,3.5,/,/,-12,-28,-13,/,6
COc1ccc(CC(=O)Nc2nnc(C(C)C)s2)cc1OC,3.3,-3.0,0.5,3%,-2,-1,3,1.7,-2,1
COc1ccc(-c2noc(CCC(=O)Nc3ccc4c(c3)OCCO4)n2)cc1,-1.5,/,-0.1,-2%,-7,/,/,/,8,6
COCCCNC(=O)CN1C(=O)c2cccc3cccc1c23,-0.1,-0.6,-0.4,/,-4,14,-9,14,-19,-12
Cn1nccc1C(=O)c1ccc(Cl)cc1,8.7,/,-0.4,-5%,3,/,/,/,-4,3
Cc1cccc(-c2noc(CN(C)C(=O)c3ccco3)n2)c1,-1.3,-3.7,-0.7,/,-6,3,7,1.0,-4,0
O=C(COc1ccccc1[N+](=O)[O-])Nc1cccc(S(=O)(=O)N2CCCC2)c1,/,1.1,-0.5,-5%,/,-20,-17,-0.1,/,3
O=C(Cc1ccccc1)NN1C(=O)C2C3C=CC(C3)[C@@H]2C1=O (stereo not given in full),3.9,/,1.1,-1%,1,/,/,/,-19,/
COc1cc(SC)ccc1C(=O)Nc1ccc2c(c1)CCC2,7.1,-1.9,-7.7,-2%,11,-2,-8,-2.5,1,-7
COc1ccc(-c2cc(C)no2)cc1S(=O)(=O)N1CCN(c2ccccc2F)CC1,-0.1,-1.8,0.0,/,-3,0,-11,4.0,13,1
CCC(C)n1c(-c2ccco2)nc2nc3ccccc3nc21 (stereo not given),0.5,/,-0.6,?,18,/,/,/,1,0
CCN(CC(=O)NCc1cccs1)C(=O)c1ccc(NS(=O)(=O)c2ccc(C(C)=O)cc2)cc1,-0.8,-1.5,-0.6,-9%,-6,3,5,-0.4,-3,1
Cc1cc(C)n(-c2nnc(C)n2N)n1,-0.6,/,0.6,5%,-4,/,/,/,-4,-5

# (more compounds)
SMILES,RanGTP-Impb inh,MLL AF4-AF9 inh,Bfl-1 A1 inh,Vif TR-FRET,Calb FLC,Ecoli rRNA inh,Ecoli rRNA inh OD600,Ecoli rRNA inh RFP,T cruzi repl,Beta cell apopt
O=C(Nc1nc2ccc([N+](=O)[O-])cc2s1)c1ccco1,0.5,-0.9,1.4,-2%,10,13,0,2.0,0,-3
Cn1c(=O)n(CCc2ccccc2)c(=O)c2c1ncn2Cc1ccccc1,0.6,/,0.2,0%,3,/,/,/,-40,-4
Cc1cccc(S(=O)(=O)N2CCC(CO)(Cc3ccccc3)CC2)c1,0.7,-0.7,0.5,2%,2,-37,-55,5.9,-12,-6
NC(=O)c1cc2n(n1)C(C(F)(F)F)CC(c1ccco1)N2 (stereo not given),3.7,/,0.5,28%,-4,/,/,/,7,-8
C[C@H](CO)N1C[C@H](C)[C@H](CN(C)Cc2ccccc2)Oc2c(NC(=O)Nc3ccc(F)cc3)cccc2C1=O,/,0.3&5.9,-0.1,/,/,0&-2,-11&8,0.6&-2.9,/,25
CCCCc1ccc(NC(=S)Nc2ccc(Cl)c(S(=O)(=O)N(C)C)c2)cc1,2.2,/,-1.1,-10%,-12,/,/,/,3,0
Cc1cccc(C)c1N1C(=O)CC(N2CCN(S(=O)(=O)c3ccccc3F)CC2)C1=O (stereo not given),/,2.9,-1.0,/,/,-4,0,-0.8,/,-6

# This is a subset; count on the stated rates, not on these rows.
